RVFV N-RNA inh – inhibitors of RVFV nucleoprotein–RNA binding, primary screen, biochemical, fluorescence polarization. P21700. RVFV N-RNA binding; hits give low values. % bound, % (concentration not given with the values). 20,000 compounds, 0.1% hits. AID 651828, 2012;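 active = between 0 and 58% in either replicate with normal brightness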;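 note: 100 nL library stock added to about 12 µL; 100% = protein and probe without compound and 0% = probe alone; numbers are from one replicate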
Target sequence (P21700 whole entry, looked up): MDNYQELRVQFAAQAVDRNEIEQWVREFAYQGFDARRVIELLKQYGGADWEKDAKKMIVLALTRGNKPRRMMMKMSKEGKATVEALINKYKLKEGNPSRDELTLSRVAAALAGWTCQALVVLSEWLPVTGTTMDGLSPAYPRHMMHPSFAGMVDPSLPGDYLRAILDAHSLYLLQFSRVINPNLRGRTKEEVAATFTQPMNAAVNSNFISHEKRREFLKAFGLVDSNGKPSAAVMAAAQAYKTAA
* hit, by the source's call; & = joins results of further samples.

Start of the listing, in advance:
Structure | RVFV N-RNA inh
O=C1CN(c2cc(Cl)cc(Cl)c2)C(=O)CN1/N=C/c1cccnc1 | 98
C=CCc1cccc(/C=N/NC(=O)CN2CCN(Cc3ccccc3)CC2)c1O | 87
CC1CCc2c(sc3ncn(CC(=O)N4CCCC4)c(=O)c23)C1 (configuration not stated) | 88
N#Cc1ccc(N2CCN(C(=O)C34CC5CC(CC(C5)C3)C4)CC2)c(F)c1 | 92
CCOC(=O)c1ccc(NC(=O)c2cc3cccnc3n(C)c2=O)cc1 | 93
C/C(CCc1ccccc1)=N/NC(=O)c1ccc(O)cc1 | 94

This part in full (from the top)
Structure | RVFV N-RNA inh
O=C1CN(c2cc(Cl)cc(Cl)c2)C(=O)CN1/N=C/c1cccnc1 | 98
C=CCc1cccc(/C=N/NC(=O)CN2CCN(Cc3ccccc3)CC2)c1O | 87
CC1CCc2c(sc3ncn(CC(=O)N4CCCC4)c(=O)c23)C1 (configuration not stated) | 88
N#Cc1ccc(N2CCN(C(=O)C34CC5CC(CC(C5)C3)C4)CC2)c(F)c1 | 92
CCOC(=O)c1ccc(NC(=O)c2cc3cccnc3n(C)c2=O)cc1 | 93
C/C(CCc1ccccc1)=N/NC(=O)c1ccc(O)cc1 | 94
CCC1(C)Cc2ccccc2-c2nc3n(c(=O)c21)CC(O)CS3 (configuration not stated) | 88
CSc1nc(N)c2ccccc2n1 | 91
Cn1c(O)c(C=NCc2ccc3c(c2)OCO3)c(=O)[nH]c1=S | 101
O=C(Nc1cccc(Nc2nccc(Nc3cccc(C(F)(F)F)c3)n2)c1)C1CC1 | 103&112
CCOC(=O)N1CCC(N2CCc3c([nH]c4ccccc34)C2)CC1 | 93
Cc1ccc2c(c1)c1c(n2CC(O)CNCc2ccco2)C(=O)CCC1 (configuration not stated) | 110
O=S(=O)(c1ccc(-c2cnco2)cc1)N1CCN(C2c3ccccc3-c3ccccc32)CC1 | 109
NC(=O)C1CCCN(C(=O)Nc2cccc(C(F)(F)F)c2)C1 (configuration not stated) | 94
CNC(=O)c1c(NC(=O)CS(=O)(=O)c2ccc(F)cc2)sc(C)c1C | 91
CC(=O)Nc1cccc(NC(=O)Cn2nc(-c3ccco3)ccc2=O)c1 | 96
CC/C(Cc1ccccc1)=N\NC(=O)c1ccc(N)cc1 | 99
OCC1O[C@H]([S-])[C@@H](O)C(O)[C@@H]1O.[Au+] (some centres not stated) | 91
O=C(Nc1ccc2ccccc2n1)C1CCN(c2nccc(C(F)(F)F)n2)CC1 | 102
CS(=O)(=O)N1CCN(c2cccc(C(F)(F)F)c2)CC1 | 98
COc1ccc(CN2CCN(c3cccc(C(F)(F)F)c3)CC2)cc1C | 99
CCOC(=O)N1CCN(C(=O)CC2c3ccccc3Oc3ccccc32)CC1 | 99
O=C(c1cccc(N2C(=O)c3ccccc3C2=O)c1)N1CCOCC1 | 95
CC(NC(=O)Cc1c(F)cccc1Cl)C1CCCO1 (configuration not stated) | 94
COCCn1ccc2c(OCC(=O)c3ccccc3)cccc2c1=O | 98
O=C(/C=C/c1ccco1)NCCCN1CCN(CCCNC(=O)/C=C/c2ccco2)CC1 | 102
COc1ccccc1OCC#CCn1cnc2ccccc2c1=O | 94
Cc1cc(C)c2c(n1)sc1c(=O)n(C)cnc12 | 90
CCC(CC)C(=O)Nc1ccccc1Cl | 95
Cc1ccc(CC(=O)N2CCCc3ccccc32)cc1 | 100
CC(C)Sc1nnc(NC(=O)NC(C)(C)C)s1 | 102
CCn1nc(C)c(Br)c1C(=O)Sc1ccc(OC)cc1 | 105
COc1cc(CNCCc2ccccc2)cc(OC)c1 | 109
CCOC(=O)CSc1nc2ccccc2n1Cc1ccccc1 | 94
Cc1ccc(S(=O)(=O)NCCN2CCNC2=O)cc1 | 95
CCCC(=O)Nc1ccc(Cl)c(NC(=O)c2ccc(Br)o2)c1 | 104
Cc1cc(C)c2nc(C(F)(F)F)nc(N3CCN(c4ccccc4F)CC3)c2c1 | 101
CCOC(=O)/C=c1/nc2c([nH]c1=O)=NON2 | 99
COc1ccc(N2C(=O)c3ccccc3C2(O)c2ccccc2)cc1OC (configuration not stated) | 98
CCOC(=O)c1ccc(NC(=O)C(CC)Sc2nc3ccccc3o2)cc1 (configuration not stated) | 100
O=[N+]([O-])c1cc(O)c(O)c([N+](=O)[O-])c1 | 94
CCc1nc2c([nH]1)c(=O)n(C)c(=O)n2C | 94
Cc1cccc2cc(CN(Cc3ccccc3)C(=O)c3ccco3)c(=O)[nH]c12 | 92
O=C(NCc1nnc(SCC(=O)N2CCOCC2)o1)c1ccccc1 | 101
COc1ccc(OC)c(N(CC(=O)N2CCN(c3ccc(F)cc3)CC2)S(=O)(=O)c2ccc(OC)c(OC)c2)c1 | 101
O=C(Cc1ccccc1)N/N=C/C=C/c1ccco1 | 90
CCc1ccccc1NC(=O)C1CC(=O)N(C2CCCCC2)C1 (configuration not stated) | 94
CC(C)N(CCC#N)S(=O)(=O)c1ccccc1 | 104
CN(CC1CCCO1)S(=O)(=O)c1ccc(C(=O)Nc2ccc3c(c2)C(=O)NC3=O)cc1 (configuration not stated) | 100
CCOC(=O)N1CCN(C2CC(=O)N(CCc3ccc(OC)c(OC)c3)C2=O)CC1 (configuration not stated) | 96
COc1ccc(OC)c(NC(=O)COc2coc(CN3CCc4ccccc43)cc2=O)c1 | 93
COc1ccc(C(C)NC(=O)c2ccccc2)cc1 (configuration not stated) | 93
CCC(=O)N1N=C2C(C)CN(C)C(C)C2C1c1ccco1 (configuration not stated) | 93
S=C1SCN(Cc2ccccn2)CN1Cc1ccco1 | 95
O=C1CC(c2ccccc2)CN1C(=O)c1ccccc1 (configuration not stated) | 92
CS(=O)(=O)N1CCN(c2ccccc2NC(=S)NC(=O)c2ccc(-c3cccc(Cl)c3)o2)CC1 | 101
Cn1cnnc1SCc1cc(=O)c(OCC(=O)N2CCc3ccccc32)co1 | 97
Cc1cc(/C=C(/C#N)C(=O)NC2CCCCC2)c(C)n1-c1ccc(I)cc1 | 87
Cc1ccc(C)c2c1sc(=NC(=O)c1ccc(C#N)cc1)n2C | 88
O=C1c2ccccc2C(=O)N1CCC1=CCCCC1 | 96

Additional structures follow:
Structure | RVFV N-RNA inh
O=C1c2ccccc2C(=O)N1CN1CCOCC1 | 88
O=C(Nc1ccc(N2CCOCC2)c2nonc12)c1cc(-c2cccnc2)nc2ccc(Cl)cc12 | 97
CCCC(CCC)C(=O)O | 92&99&98
CCOc1cc(/C=N/O)cc(I)c1O | 95
O=C(CN1C(=O)c2ccc(Br)cc2C1=O)NCC1CCCO1 (configuration not stated) | 108
CCN(CC)CCOc1ccc(Cl)cc1C | 99
O=C(O)/C=C1\SC(=O)N(c2ccccc2)C1=O | 94
CC(C)CN1C(=O)c2ccc(-c3nc4ccccc4c(=O)o3)cc2C1=O | 99
CCS(=O)(=O)c1ccc(-c2cccc(NC(=O)c3ccc(Br)o3)c2)nn1 | 93
CC(C)(C)n1ncc(O)c(Cl)c1=O | 98
Cc1ccnc(NC(=O)Nc2ccccc2)c1 | 90
O=C(CC12CC3CC(CC(C3)C1)C2)Nc1ccc2oc(-c3ccncc3)nc2c1 | 98
Cc1cc(C(=O)/C(C#N)=C/Nc2cccc(OC(F)(F)F)c2)c(C(F)(F)F)o1 | 105
NC(N)=NCCCCN=C(N)N | 94
Nc1ccccc1C(=O)NCc1ccc2c(c1)OCO2 | 95
CC(=O)Nc1cc(OC(=O)c2ccco2)cc(OC(=O)c2ccco2)c1 | 98
CC(=O)Oc1cc2c(C(=O)NC3CC(C)(C)NC(C)(C)C3)c(C)oc2c2ccccc12 | 93
CCC1(CC)C(=O)N=C(SCC(=O)Nc2c(C)n(C)n(-c3ccccc3)c2=O)N(C)C1=O | 97
O=c1onc(-c2ccccc2)n1-c1cccc(Cl)c1 | 97
COC(=O)c1ccc(C(=O)OC)c(N(C)S(C)(=O)=O)c1 | 94
Cc1cc2cc(CNC(=O)NC3CCCCC3)ccc2[nH]1 | 94
NCCCC(=O)O | 106
COC(=O)c1sccc1N/N=C(/C#N)C(=O)C1CC1 | 107
O=c1[nH]c2cc([N+](=O)[O-])c([N+](=O)[O-])cc2[nH]c1=O | 96
Cn1nccc1NC(=O)Nc1ccc(Cl)cc1 | 85
Cc1cc(C)n(-c2ccc(N=NC3=C(O)CCCC3=O)cc2)n1 | 87
Cc1noc(C)c1NC(=O)Nc1cc(C(F)(F)F)cc(C(F)(F)F)c1 | 85
Cc1oc(-c2ccc(Cl)cc2)cc1-c1ccn[nH]1 | 93
Cc1c(NS(=O)(=O)N2CCCCC2)c(=O)n(-c2ccccc2)n1C | 100
c1ccc2c(c1)CCN(Cc1ccncc1)C2 | 103
Cc1cc(-c2c(C(=O)NN3CCOCC3)c(C)nn2-c2ccccc2)no1 | 86
COc1nc(C)nc(NC(=O)NN)n1 | 90
O=C1CC(C(=O)NC2CCCCC2)C(c2ccccc2)O1 (configuration not stated) | 104
COc1ccc(C(=O)Nc2c(N)nc(SCC(=O)NC3CCCCC3)[nH]c2=O)cc1 | 104
COC(=O)C1=C(NC(=O)c2ccccc2F)CCS1 | 92
Cc1nc2ccc(NC(=O)c3cccc(S(C)(=O)=O)c3)cc2s1 | 96
O=C(/C=C/c1ccco1)Nc1ccc2ccccc2c1 | 105
Cc1c2ccncc2c(C)c2c1[nH]c1ccccc12 | 90
CSC1=NCCN1C(=O)c1ccc(Br)cc1 | 91
COc1ccc(C(NC(=O)/C=C\c2ccco2)c2cc(OC)c(OC)cc2Br)cc1OC (configuration not stated) | 100
Cc1ccc(C(=O)N/C(=C/c2ccco2)C(=O)Nc2ccc(C(=O)O)cc2)cc1 | 105
CCN(CC(N)=O)S(=O)(=O)c1ccc(Br)cc1 | 99
CCN(CC)S(=O)(=O)c1cc(Br)ccc1OC | 92
COC(=O)CCNc1ccc(OC)cc1 | 89
CCCCn1c2ccccc2c2n[nH]c(=S)nc21 | 96
O=c1cc(-c2ccccc2)nc(N2CCc3ccccc32)[nH]1 | 94
N#Cc1c(-c2ccccc2)[nH]c(=S)[nH]c1=O | 99
Cc1cccc(-c2nc(C#N)c(NCC(C)C)o2)c1 | 95
Cc1cc(-c2ccc(C(=O)O)s2)c[nH]c1=O | 102
COc1nccn(-c2ccccc2)c1=O | 91
CCn1c(C)cc(O)c(C(c2cccc(OC)c2)N2CCN(c3ccc(F)cc3)CC2)c1=O (configuration not stated) | 100
C1CCC(OCCN2CCN(CCOC3CCCCC3)CC2)CC1 | 95
CC(=O)Nc1cccc(C(=O)O)c1 | 92
CCc1cc(Cl)c(OC)c(C(=O)NCC2CCCN2CC)c1O (configuration not stated) | 98
COc1cccc([C@@]2(O)CCCC[C@@H]2CN(C)C)c1 | 90&110
Nc1ncc(N=Nc2ccc(SC(F)F)cc2)s1 | 101
Cc1cc(C(=O)O/N=C(\N)CSc2ncccc2C(F)(F)F)no1 | 94
CCN1C(=O)c2ccc(C(=O)Nc3c(C)cc(C)cc3C)cc2C1=O | 86
Cc1ccc(S(=O)(=O)c2nc(S(C)(=O)=O)sc2N2CCCCC2C)cc1 (configuration not stated) | 93
C=C(c1ccc(OC)cc1)c1ccc(OC)cc1 | 88

Taken from above.
COc1ccc(C(NC(=O)/C=C\c2ccco2)c2cc(OC)c(OC)cc2Br)cc1OC (configuration not stated) in RVFV N-RNA inh has 100
Cc1nc2ccc(NC(=O)c3cccc(S(C)(=O)=O)c3)cc2s1 in RVFV N-RNA inh has 96

(further entries)
Structure | RVFV N-RNA inh
Cc1ccc(N(CN2CCCC2=O)C(=O)c2ccccc2)cc1 | 92
O=S(=O)(Cc1ccccc1)N1CCN(c2ccccc2Cl)CC1 | 95
Cc1cccc(CN2CCc3c([nH]c4ccccc34)C2)c1 | 96
CC(C[N+](C)(C)C)OC(N)=O (configuration not stated) | 93&100&95
CC(=O)Oc1c(C)cccc1C(=O)O | 100
Cc1cnn(CCCNC(=S)Nc2ccc(S(N)(=O)=O)cc2)c1 | 112
C/C(=N\NC(N)=O)c1csc2ccccc12 | 97
O=C(Nc1ccon1)c1cccc(Cl)c1 | 90
CSc1cccc(NC(=O)CN(Cc2ccccc2)S(C)(=O)=O)c1 | 96
C#CCn1c(=NC(=O)c2cccs2)sc2ccccc21 | 93
COCCOc1ncc(NC(=O)CSCC(=O)O)cc1C(F)(F)F | 95
CCOC(=O)Cc1ccc(NC(=O)c2ccc(OC)c(OC)c2)cc1 | 100
CCN(CC)c1ccc(C(=O)c2ccccc2C)cc1 | 97
CCN(CC)C(=O)N(C)Cc1ccccc1 | 100
COc1c[nH]n(C(C)(C)C)c(=O)c1=O | 107
O=C(c1ccco1)N1CCN(C(=O)N2c3ccccc3Sc3ccccc32)CC1 | 100
Cc1ccc(S(=O)(=O)N(C)c2ccccc2C(=O)N2CCCC2)cc1 | 101
S=C(NC1CCCC1)NN1CCOCC1 | 89
O=c1[nH]c2ccccc2n1C1CCN(Cc2ccc(-c3[nH]c4cc5ncnc5cc4nc3-c3ccccc3)cc2)CC1 | 114
O=C(NCc1ccco1)C1CC1(c1ccccc1)c1ccccc1 (configuration not stated) | 89
Nc1ccccc1C(=O)OC1CSC1 | 97
S=c1nccc(-c2cc(-c3ccccc3)no2)[nH]1 | 92
COc1ccc2ncc(S(=O)(=O)c3ccccc3)c(N3CCC4(CC3)OCCO4)c2c1 | 92
CCOC(=O)N1CCC(NC(=O)c2nccnc2C(=O)Nc2ccc(C)cc2)CC1 | 97
Cc1cc2c([nH]c3ccccc32)c(C)n1 | 98
COc1cccc(C(=O)Nc2c(C)n[nH]c2C)c1 | 94
CC1(C)CC(=O)C2=C(C1)Nc1ccccc1N(C(=S)Nc1ccccc1)C2c1ccco1 (configuration not stated) | 101
CC(C)=CCCC(C)CN1CCN(c2ccc(Cl)cc2)CC1 (configuration not stated) | 91
O=C(NC(=O)N1CCCc2ccccc21)c1ccccc1 | 87
Cc1ccccc1C(=O)NC(=S)N1CC(C)OC(C)C1 (configuration not stated) | 95
C/C(=N\OC(=O)Nc1ccc(Cl)cc1)c1cc(-c2ccccc2)no1 | 96
O=C(/C=C/c1ccccc1)NCCN1CCOCC1 | 102
CC1=NNC(=O)/C1=C/c1ccc(-c2ccc(Cl)cc2)o1 | 102

Compound activity (PubChem BioAssay)

An excerpt. The share of hits here may be higher or lower than overall.
